Compound activity from PubChem BioAssay.
Resorufin fluor: qHTS Assay for Spectroscopic Profiling in Resorufin Spectral Region; max dye-equivalent concentration, M; 0.04% of 59,000 active; Compound fluorescence, resorufin region 547/598 nm, buffer; hits give high values; active = above 10 nM dye equivalent; inconclusive = 1 to 10 nM; inactive = 1 nM or less; a few of its hits are not listed in these tables; note: highest value over a series up to 38 µM
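Dye-equivalent concentration values derive from comparing each well's 547/598 nm fluorescence against resorufin standards included on every plate. Incubation was 15 min at room temperature in 100 mM Tris, pH 8.0.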
A488 fluor: qHTS Assay for Spectroscopic Profiling in A488 Spectral Region | compound autofluorescence, A488 spectral region, dye equivalency; hits give high values | max dye equivalency, M | 0.1% of 59,000 active | AID 591, 2007; active = above 10 nM dye equivalent; inconclusive = 1 to 10 nM; inactive = 1 nM or less; about half of its hits are not listed in these tables;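 note: highest value over a series up to 38 µM; compound alone in buffer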
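Intrinsic compound fluorescence is measured in 100 mM Tris buffer at pH 8.0 following 15 min incubation at room temperature. Intensities at 480 nm excitation/540 nm emission are calibrated to an on-plate A488 concentration series, giving dye-equivalent concentrations.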
AID923: qHTS Assay for Allosteric/Competitive Inhibitors of Caspase-1: Spectroscopic Profiling in AFC Spectral Region; compound fluorescence, AFC spectral region (405/520 nm); almost no hit is shown here; Potency, µM (doses to about 57.5 µM), without a hit: top-dose fluorescence increase, actives largely listed as activators; 1.1% of 75,000 active; active = well fitted activation curve with a large enough effect; inconclusive = small, poorly fitted or top-dose-only effect;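 note: potency is the fitted concentration of half-maximal effect; 0% is about no effect; scaled to a free AFC standard on each plate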
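Titrations up to 57 uM read every 20 sec for 3 min (405/520 nm) with 50 nM caspase 1 and 5 uM Ac-WEHD-AFC, pH 7.5 HEPES buffer. Fluorescence-vs-time intercept gave baseline, scaled against on-plate AFC standard.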
TSHR ag: qHTS Assay for Agonists of the Thyroid Stimulating Hormone Receptor; Thyrotropin receptor (Homo sapiens), P16473; HEK293-CNG-TSHR cells (CNG channel as cAMP sensor), membrane potential dye, cAMP; Potency, µM (top dose mostly 57.1 µM), without a hit: top-dose activation, usual class: activators; 0.48% of 73,000 active; active = well fitted activation curve of enough size with the parental cells flat; inconclusive = any curve in the parental cells; inactive = parental cells flat and receptor cells flat or falling; note: potency is the fitted concentration of half-maximal effect; % of control where 0% means no effect; weak receptor curves with flat parental cells got no call and are not listed
Target sequence (P16473 whole entry, looked up): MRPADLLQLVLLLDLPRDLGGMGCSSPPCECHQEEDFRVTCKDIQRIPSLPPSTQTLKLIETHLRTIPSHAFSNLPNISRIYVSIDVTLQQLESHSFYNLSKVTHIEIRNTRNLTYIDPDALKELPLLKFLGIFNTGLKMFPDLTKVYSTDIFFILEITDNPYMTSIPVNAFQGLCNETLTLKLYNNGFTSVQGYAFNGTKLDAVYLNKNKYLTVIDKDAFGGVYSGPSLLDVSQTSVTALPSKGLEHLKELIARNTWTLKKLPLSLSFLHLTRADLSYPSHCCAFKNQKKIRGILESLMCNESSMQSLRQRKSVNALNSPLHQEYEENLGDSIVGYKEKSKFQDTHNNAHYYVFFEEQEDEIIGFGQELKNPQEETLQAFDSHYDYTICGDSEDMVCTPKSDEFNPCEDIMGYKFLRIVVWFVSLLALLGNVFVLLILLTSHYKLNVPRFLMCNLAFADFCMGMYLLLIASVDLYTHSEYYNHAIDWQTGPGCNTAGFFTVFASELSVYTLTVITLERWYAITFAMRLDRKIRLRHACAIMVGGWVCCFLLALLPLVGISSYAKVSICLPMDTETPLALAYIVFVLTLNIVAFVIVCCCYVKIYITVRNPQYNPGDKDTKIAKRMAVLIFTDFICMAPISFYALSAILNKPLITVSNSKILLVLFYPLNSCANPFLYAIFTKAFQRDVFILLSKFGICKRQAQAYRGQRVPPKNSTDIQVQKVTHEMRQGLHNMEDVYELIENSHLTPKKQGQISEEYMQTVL
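HEK 293 cells stably expressing TSHR and a cAMP-gated CNG channel; parental CNG-only cells as counterscreen. Cells preloaded 60 min with membrane potential dye plus 100 uM RO 20-1724, then compound 30 min; fluorescence read at 590 nm.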
A647 fluor: qHTS Assay for Spectroscopic Profiling in A647 Spectral Region | AID 592, 2007 | Compound fluorescence, A647 channel (570/671 nm), Tris buffer | max dye-equivalent concentration, M | 59,000 tested, under 10 active; active means above 1 µM dye equivalent; inconclusive means 0.1 to 1 µM; inactive means 0.1 µM or less;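 note: values scaled relative to a standard on each plate; highest value over a series up to 38 µM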
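Compounds pinned into 100 mM Tris pH 8.0, 15 min at room temperature, then read with 570 nm excitation/671 nm emission filters. Fluorescence normalized to an on-plate six-point Alexa 647 standard curve, giving dye-equivalent concentration per compound concentration.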
Starred values were filed as active, the others as inactive; i = inactive; ? = inconclusive; / = no result given; & = joins results of further samples; [ ] = dose if it differs, or a comment.

SMILES	Resorufin fluor	A488 fluor	AID923	TSHR ag	A647 fluor
CN(C)CCCN1C(=O)C(=O)/C(=C(/O)c2ccncc2)C1c1cccc(Br)c1 (configuration not stated)	i	i	-3.0%	1%	1e-09
C=CC(C)(O)CCCC(C)CCCC(C)CCCC(C)C (configuration not stated)	/	/	-2.7%	-6%	/
Cc1ccc(CS(=O)(=O)CCC(=O)NCCCN2CCCC2)cc1	i	i	0.4%	1%	1e-08
COC(=O)c1cccc(NC(=O)CN2CCC(NC(=O)c3cc(OC)c(OC)c(OC)c3)CC2)c1	i	i	1.6%	10%	1e-09
O=C(Cn1nc(C(F)(F)F)c2c1CCCC2)NC1CCCC1	i	i	-0.3%	?	1e-09
CCCCCCn1c(CN2CCN(CCO)CC2)nc2c1c(=O)n(C)c(=O)n2C	/	/	-2.1%	14%	/
Cc1cc(C)c(NC(=O)C2CSCCS2)c(C)c1 (configuration not stated)	i	i	-0.7%	-10%	1e-09
O=C(CCN1CCc2ccccc21)c1ccc2c(c1)OCCO2	i	i	/	/	9.7e-08
COC(=O)c1cc(Nc2cc(C)nc3ncnn23)cc(C(=O)OC)c1	/	/	5.3%	2%	/
COc1ccc(OC)c(-n2cnc3cc(C(=O)NCCCN4CCOCC4)ccc32)c1	i	i	-0.6%	22%[11.4 µM]	2.8e-08
COc1ccc(CNC(=O)c2cccs2)cc1	/	/	-4.0%	6%[11.4 µM]	/
Cc1ccc2cc(C)c(SCC#N)nc2c1	i	i	0.6%	?	1e-09
CCOc1ccccc1NC(=O)C1=C(C)NC(=O)NC1c1cccc(OC)c1OC (configuration not stated)	i	i	0.9%	3%[11.4 µM]	1e-09
COC(=O)C(NC(=O)c1ccco1)(Nc1nc(C2CC2)cs1)C(F)(F)F (configuration not stated)	i	i	4.5%	/	9e-09
O=C(CNS(=O)(=O)c1cccc2nsnc12)NC1CCCCC1	i	i	0.7%	-2%	3.2e-09
Cc1cccc(-n2nnc(C(=O)NCc3ccccc3)c2N)c1	i	i	1.0%	-5%	3e-08
O=C(c1ccco1)N1CCN(C(=O)c2cccc3c2C(=O)N(Cc2cccnc2)C3)CC1	/	/	1.4%	-2%	/
Cc1cc2c(c(=O)n1CCN(C)C)C(c1ccc(Br)cc1)C(C#N)=C(N)O2 (configuration not stated)	i	i	-1.3%	-9%	1e-09
CN1CC2(C(=O)c3ccccc3)CN(C)CC(C(=O)c3ccccc3)(C1)C2	i	i	2.6%	4%	6.5e-09
O=C(CCCOc1ccccc1)N1CCCc2ccccc21	/	/	0.1%	?	/
CCN1C(=O)[C@H]2[C@@H]3[C@H](O)[C@H](O)CC(=O)[C@H]3CC[C@H]2C1=O	/	/	1.8%&0.4%[11.5 µM]	1%&-2%[11.4 µM]	/
CN(C)c1ccc(NC(=O)Nc2ccc3snnc3c2)cc1	i	i	0.4%	-16%	3.6e-08
O=C1c2ccccc2C(Nc2ccc3c(c2)OCCO3)N1Cc1ccc2c(c1)OCO2 (configuration not stated)	/	/	3.1%	19%	/
C=CCOC(=O)C1=C(C)N(C)C(=O)NC1c1cc2c(cc1Br)OCO2 (configuration not stated)	/	/	-0.9%	24%	/
O=C(CCCN1CCC(O)(c2ccc(Cl)cc2)CC1)c1ccc(F)cc1	i	i	-2.3%	2%	1e-09&1e-09&2.4e-09
Cc1nc2nc(SCC(=O)N3CCOCC3)nn2c(C)c1Cc1c(F)cccc1Cl	i	i	0.1%	3%[11.4 µM]	3e-08
COc1nc(-c2ccccc2)ccc1-c1noc(-c2cccnc2)n1	i	i	0.6%	?	3.3e-09
O=C(Nc1ccccc1C(=O)NCCCn1ccnc1)c1ccccc1	i	i	/	/	2.2e-09
CCOC(=O)c1c(C)nc(-c2ccccc2)nc1N	i	i	0.2%	2%	1.1e-08
COc1ccc(N2CCN(c3oc(-c4ccc(OC)c(OC)c4)nc3C#N)CC2)cc1	i	i	1.5%	25%	2.2e-08
CC(C)NC(=O)CSc1nnc(-c2ccc(S(=O)(=O)N3CCCC3)cc2)n1CC1CCCO1 (configuration not stated)	i	i	1.7%	-4%	3.2e-08
CCOc1cc(NC(=O)c2ccco2)c(OCC)cc1NC(=O)Cc1ccc(OC)c(OC)c1	i	i	3.3%	20%	2.4e-09
COc1ccccc1CNc1ccc(N2CCCCC2)cc1	i	i	-0.4%	?	1.4e-08
Cc1nn(-c2ccccc2)c(N2CCCC2)c1/C=N/n1cnc2scc(-c3ccccc3)c2c1=O	i	i	1.0%	3.2µM*	8.4e-09
CC(C(=O)NC1=NCCS1)(C(F)(F)F)C(F)(F)F	i	i	-0.9%	18%	1e-09
Cc1c(C(=O)Nc2ccccn2)oc2ccccc12	/	/	0.2%	22%	/

Gathered by group, the entries above containing a Cl atom
SMILES	Resorufin fluor	A488 fluor	AID923	TSHR ag	A647 fluor
O=C(CCCN1CCC(O)(c2ccc(Cl)cc2)CC1)c1ccc(F)cc1	i	i	-2.3%	2%	1e-09&1e-09&2.4e-09
Cc1nc2nc(SCC(=O)N3CCOCC3)nn2c(C)c1Cc1c(F)cccc1Cl	i	i	0.1%	3%[11.4 µM]	3e-08

One compound at a time, as listed above:
`CCOc1cc(NC(=O)c2ccco2)c(OCC)cc1NC(=O)Cc1ccc(OC)c(OC)c1` is entered as Resorufin fluor: i; A488 fluor: i; AID923: 3.3%; TSHR ag: 20%; A647 fluor: 2.4e-09
`CC(C(=O)NC1=NCCS1)(C(F)(F)F)C(F)(F)F` is entered as Resorufin fluor: i; A488 fluor: i; AID923: -0.9%; TSHR ag: 18%; A647 fluor: 1e-09

(cont.)
SMILES	Resorufin fluor	A488 fluor	AID923	TSHR ag	A647 fluor
COc1ccccc1CNS(=O)(=O)c1cc(C)ccc1OC	i	i	0.2%	25%	4.2e-08
CC(=O)c1cccc(NC(=O)N2CCC(c3nnc(SCC(N)=O)n3C)CC2)c1	i	i	-2.1%	-3%	1e-09
N#Cc1nc(-c2ccccc2)oc1N1CCCCC1	i	i	0.4%	?	6.7e-09
COc1cc2ccccc2cc1C(=O)OCC(=O)N1CCOCC1	i	i	1.7%	6%	3.1e-08
CC1(C)Cc2c(sc3nc(SCC(=O)NCc4ccco4)n(-c4ccccc4)c(=O)c23)CS1	i	i	/	/	1.8e-08
CC1(C)CC(=O)c2sc(NC(=O)CN3CCCCC3)nc2C1	/	/	-0.8%	7%	/
N=C1C(c2nc3ccccc3c(=O)[nH]2)=C(O)CN1CCO	i	i	1.7%	12%	2.7e-08
CCCCn1c(=O)[nH]c(=O)c2c1nc(COc1ccc(C#N)cc1)n2CCC	i	i	-1.0%	10%	1.5e-09
O=C(NCc1cccs1)C1CCC(CNS(=O)(=O)c2ccc(Br)s2)CC1 (configuration not stated)	i	i	0.4%	-2%[11.4 µM]	4e-08
COc1ccccc1C(=O)Nc1ccccc1N1CCN(S(C)(=O)=O)CC1	i	i	-1.4%	-1%	4.8e-09
O=C(c1cccc(S(=O)(=O)N2CCCCC2)c1)N1CCOCC1	i	i	0.9%	-3%	1e-09
COc1ccc(N2C3=[N+](CCCC3)CC2(C)O)cc1 (configuration not stated)	i	i	-0.2%	0%	6.8e-09
CCn1c(SCC(=O)N2CCCCC2)nnc1-c1ccc(S(=O)(=O)N2CCN(C)CC2)cc1	i	i	0.0%	2%	4.5e-08
COC(=O)C1=C(N)Oc2cc(C)n(Cc3cccnc3)c(=O)c2C1c1cccc(OC)c1OC (configuration not stated)	i	i	3.8%	1%	1e-09
CCOC(=O)C1Cn2c(nc3c(c2=O)C2(CCCC2)Cc2ccccc2-3)S1 (configuration not stated)	/	/	1.3%	8%[11.4 µM]	/
O=C(NCc1ccccc1)N1CCN(c2ccccc2F)CC1	i	i	-2.8%	7%	3.3e-09
COC(=O)c1cccc2c1-c1ccccc1/C2=N/O	i	i	-1.7%	-44%[inhibitor]	1.8e-08
CCN(CCNC(=O)C1CCN(S(=O)(=O)c2cccc3cccnc23)CC1)c1ccccc1	/	/	-0.2%	0%	/
CC1CCCCN1CCn1c(=S)[nH]c2ncccc2c1=O (configuration not stated)	i	i	-1.7%	0%	1.1e-09
CCC1C(C#N)=C(SC)NC2=C1C(=O)CC(C)(C)C2 (configuration not stated)	/	/	11%	5%[11.4 µM]	/
COc1ccc(N(C(=O)COc2ccccc2)C2C=CS(=O)(=O)C2)cc1 (configuration not stated)	i	i	0.6%	-2%[11.4 µM]	1e-09
CCOc1cc2[nH]c(=O)n(CCCCC(=O)NC3CCCCC3)c(=O)c2cc1OCC	i	i	1.9%	?	1e-09
CC(=O)NC(C)c1ccc(Cl)c(Cl)c1 (configuration not stated)	/	/	-0.5%	-2%	/
O=C(O)C(Cl)(c1ccccc1)c1ccccc1	i	i	5.3%[11.5 µM]	-1%[11.4 µM]	1e-09
COc1cccc2[nH]c3c(=O)n(CCN(C)C)cnc3c12	i	i	2.3%	9%	3.7e-08
O=C(Cn1c(CN2CCCCC2)nc2ccccc2c1=O)NC1CCCCC1	i	i	-0.5%	?	8.6e-09
Cc1cc(C)nc(Nc2n[nH]c(-c3ccccc3Br)n2)n1	i	i	0.4%	3%	1e-09
CCOC(=O)N1CCC(NC(=O)CSCc2cnn(-c3ccccc3)c2-n2cccc2)CC1	i	i	-0.9%	9%	1.4e-09
c1ccc(CNC2=NCCCCC2)cc1	i	i	-0.3%	0%	1.8e-08
COc1ccc(N2CCN(C(=O)Cc3ccc(-n4c(=O)[nH]c5ccccc5c4=O)cc3)CC2)cc1	i	i	-0.4%	4%	1.4e-09
CCn1c(=NC(=O)CSC(C)=O)sc2cc(F)ccc21	i	i	0.8%	?	2.9e-08
COc1ccc(Nc2nc(N3CCCCC3)nc(N3CCCCC3)n2)c(OC)c1	/	/	0.2%	2%[11.4 µM]	/
CCCNC(=O)OC[C@@H]1O[C@H](CCO/N=C\[C@@H](C)[C@H](OCc2ccccc2)C(C)C)C=C[C@@H]1Oc1ccc(OC)cc1	/	/	-1.2%[11.5 µM]	4%[11.4 µM]	/
CC(=O)Nc1ccc(NC2(C)C(=O)c3ccccc3C2=O)cc1	/	/	-3.3%	-7%	/
CCC(C)Sc1nc2c(cnn2-c2ccc(C)c(C)c2)c(=O)[nH]1 (configuration not stated)	/	/	0.1%	0%	/
COc1cccc(C(=O)NC2CCN(C(=O)N3CCCCC3)CC2)c1	i	i	-0.8%	?	1.4e-08
O=C(Nc1cccnc1)c1scc2c1OCCO2	i	i	0.7%	0%	8.1e-09
Cc1cc(NC(=O)CSC2=NCCS2)no1	i	i	-1.3%	-2%	4.9e-08
COc1ccc(NC(=O)c2cnc3sccn3c2=O)cc1	i	i	-0.7%	5%	1.3e-08
Clc1ccc(Cn2ncc3c(NCc4ccco4)ncnc32)c(Cl)c1	i	i	-0.4%	11%	1.9e-09
CC(C)CCN1C(=O)c2ccc(C(=O)NCc3ccco3)cc2C1=O	i	i	-0.5%	-13%	3.3e-09
O=C(O)c1n[nH]c2c1CCCC2	i	i	2.6%	0%	1e-09
COc1ccc(CNC(=O)Cc2ccc(OC)c(S(=O)(=O)N3CCOCC3)c2)cc1	i	i	-0.6%	-3%	2.3e-08
CC(=O)OCC1=C(C(=O)O)N2C(=O)[C@@H](NC(=O)CSc3ccncc3)[C@@H]2SC1	i	i	0.2%[25.7 µM]	-9%[25.6 µM]	1.9e-09&4.4e-08
Cc1cc(N2CCCC2=O)cc(C)c1S(N)(=O)=O	i	i	-0.4%	4%	1e-09
Cc1noc(C)c1S(=O)(=O)N1CCCC(C(=O)N2CCC(C)CC2)C1 (configuration not stated)	i	i	0.0%	6%	1e-09

These rows are one share of the data (hit frequency here may not be typical).
